Bioassay records deposited in PubChem BioAssay by National Center for Advancing Translational Sciences (NCATS).
NPR1 antag: Natriuretic polypeptide receptor (hNpr1) antagonism - Primary qHTS | Atrial natriuretic peptide receptor 1 (Homo sapiens), P16066 | HEK293 hNpr1 GloSensor cGMP, ANP-stimulated luminescence | Potency, µM (highest dose often 46.3 µM), for the others: at the top dose activity change, negative = inhibition, most hits filed as inhibitors | actives 1.6% (n = 76,000); active = well fitted inhibition curve with a large enough effect; inconclusive = small, poorly fitted or top-dose-only effect; inactive = no such curve, though single readings can be large or run the other way;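 further: nearly all actives have a fitted effect of over 60% in size; nearly all hits also lower the signal before the agonist is added; a reference antagonist and vehicle were the controls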
Target sequence (P16066 whole entry, looked up): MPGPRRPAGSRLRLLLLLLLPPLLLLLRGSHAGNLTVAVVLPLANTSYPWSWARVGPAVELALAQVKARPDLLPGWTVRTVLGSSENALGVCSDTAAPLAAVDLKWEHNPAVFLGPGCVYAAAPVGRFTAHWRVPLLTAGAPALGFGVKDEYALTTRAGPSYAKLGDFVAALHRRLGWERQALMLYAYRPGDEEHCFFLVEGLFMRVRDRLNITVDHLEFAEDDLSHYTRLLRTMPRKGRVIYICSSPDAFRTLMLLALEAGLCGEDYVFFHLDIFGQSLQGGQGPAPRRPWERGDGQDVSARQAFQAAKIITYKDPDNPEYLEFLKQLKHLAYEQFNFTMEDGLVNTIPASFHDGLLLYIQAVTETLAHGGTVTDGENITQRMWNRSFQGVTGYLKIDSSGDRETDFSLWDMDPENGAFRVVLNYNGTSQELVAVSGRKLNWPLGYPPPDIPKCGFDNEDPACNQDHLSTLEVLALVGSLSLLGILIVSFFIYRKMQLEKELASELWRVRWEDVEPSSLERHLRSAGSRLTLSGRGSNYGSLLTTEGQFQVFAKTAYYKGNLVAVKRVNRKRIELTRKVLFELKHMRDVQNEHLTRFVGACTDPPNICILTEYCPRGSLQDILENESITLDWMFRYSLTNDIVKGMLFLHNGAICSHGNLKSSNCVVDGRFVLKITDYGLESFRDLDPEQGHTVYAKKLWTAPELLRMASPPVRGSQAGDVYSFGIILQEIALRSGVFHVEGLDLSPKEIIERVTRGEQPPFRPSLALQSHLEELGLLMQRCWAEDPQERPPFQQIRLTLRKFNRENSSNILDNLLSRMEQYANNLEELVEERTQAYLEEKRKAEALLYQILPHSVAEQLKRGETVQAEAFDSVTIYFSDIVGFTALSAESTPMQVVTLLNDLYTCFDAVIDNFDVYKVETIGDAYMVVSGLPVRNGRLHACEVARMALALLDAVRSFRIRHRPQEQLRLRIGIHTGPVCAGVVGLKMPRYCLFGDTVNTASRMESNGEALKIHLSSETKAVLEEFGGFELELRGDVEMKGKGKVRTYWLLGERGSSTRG
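HEK293 cells stably expressing human Npr1 and cGMP GloSensor pGS-40F, loaded 2 h with 2% GloSensor reagent, given compound 30 min at room temperature. Luminescence read before and 20 min after 0.1 nM hNppA.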
Starred values were filed as active, the others as inactive; ? = inconclusive; [ ] = another dose, or the depositor's remark. On the % scale 0 is the no-effect control and ±100 the full control effect; potency means the concentration at half of the fitted maximal effect. This is a subset, so the mix of outcomes need not match the whole.

NPR1 antag,smiles
-0.5%,CCOc1cccc(CNC(=O)c2c(OCC3CC3)cc(=O)n3c2CCCCC3)c1
5.0%,COC[C@@H]1CN(S(=O)(=O)c2cccnc2)C[C@H]1c1ccncc1
-2.9%,CCn1ncc(N2CCCC(CC(=O)NCc3cccc(Cl)c3)C2)cc1=O (configuration not stated)
12.1%,CCOC(=O)c1ccccc1NC(=O)CN1C(=O)NC2(CCOCC2)C1=O
-1.6%,O=C(CC(F)(F)F)N1CCC(N2C(=O)C(O)C23CCCCC3)CC1 (configuration not stated)
-4.4%,COc1ccccc1N1CCN(C(=O)C[C@@H]2O[C@H](CNC(=O)c3ccccc3)[C@@H](O)[C@H]2O)CC1
0.4%,CN(C)C[C@@H]1CN(C)C[C@H]1NC(=O)c1ccc(C(F)(F)F)cc1
10µM*,CC(C)c1cc(C(=O)N2CCC(n3cc(-c4ccccn4)nn3)CC2)n(C)n1
2.8%,COc1cccc(CNC(=O)N(C)C2CCc3nnc(C)n3CC2)c1 (configuration not stated)
?,Cc1noc2c(-c3cn[nH]c3)cc(-c3cccc(C(F)(F)F)c3)nc12
-0.4%,COc1ccc(CCNC(=O)c2cccnc2N2CC3CC(C2)[C@H]2CCCC(=O)N2C3)cc1OC (some centres not stated)
4.7%,COCCNC(=O)N1CCN(c2cnccn2)CC(C(=O)O)C1 (configuration not stated)
-1.2%,Cc1ccn2c(C(=O)N[C@H]3CCOC[C@H]3C3CCOCC3)nnc2n1
-2.3%,O=C([C@@H]1C[C@H](F)CN1C(=O)NCc1cccc(F)c1)N1CCc2ccccc2C1
-0.6%[70.6 µM],COCCN1C(=O)CO[C@H]2CN(Cc3ccccc3)C[C@H]21
11.6%,O=C(Cc1ccsc1)N1CCC2(CC1)CC(N1CCCCC1)CCO2 (configuration not stated)
3.6%,COc1ccc(-c2cc3nc4c(c(=O)n3[nH]2)CN(C(=O)CC(C)C)CC4)cc1
0.3%,Cc1nnc(C2CCCCCN2S(=O)(=O)c2cccnc2)o1 (configuration not stated)
1.5%,CNC(=O)Cn1nc(C2CCN(C(=O)Cc3ccsc3)CC2)c2c1CCOC2
4.3%[70.6 µM],CN(C)c1ccc(C(=O)N2CCN3C(=O)N(Cc4ccccc4)C(=O)[C@H]3C2)cc1
-15.9%,Cc1ccc(C(=O)NCc2nnc3cc(-c4nc(C5CC5)no4)ccn23)cc1C
-16.3%[70.6 µM],Fc1ccc(CN2Cc3[nH]cnc3C[C@H]2c2nc(-c3ccccc3)no2)cc1
-3.7%,Fc1ccc(NC(=S)N[C@H]2CO[C@H]3[C@@H]2OC[C@@H]3n2nnnc2Oc2ccc3c(c2)OCO3)cc1
-3.0%,NC(=O)[C@@H]1CN(C(=O)c2ccoc2)C[C@H]1COc1ccccc1
0.8%,COCCN(CC1CCN(Cc2ccccc2F)CC1)C(=O)c1ccc(OC)cc1OC
-0.2%,O=C1CCCCC(Cc2cccnc2)(C(=O)NCCc2c[nH]c3ccccc23)N1 (configuration not stated)
1.7%,c1ccc(-c2nc(C3CCNC3)no2)cc1 (configuration not stated)
-19.9%,COc1ccc(Cn2c3c(c(=O)n2Cc2ccccc2)CCN(C(=O)c2nc4ccccc4[nH]2)C3)cc1
-2.4%,COCC1CN(C(C)=O)CC12CCN(Cc1ccc(Br)o1)CC2 (configuration not stated)
-13.3%,COCCn1ncc(N2CCCC(CC(=O)N(C)Cc3ccccc3)C2)cc1=O (configuration not stated)

Shown as tab-separated lines: 2 of the compounds above.
Compound	NPR1 antag
Cc1ccn2c(C(=O)N[C@H]3CCOC[C@H]3C3CCOCC3)nnc2n1	-1.2%
O=C([C@@H]1C[C@H](F)CN1C(=O)NCc1cccc(F)c1)N1CCc2ccccc2C1	-2.3%

Other entries follow.
NPR1 antag,smiles
4.8%,Cc1noc(C)c1C(C(=O)O)N(C)Cc1nc(-c2ccccn2)no1 (configuration not stated)
-2.1%,COc1ccc(CN2Cc3cc(NC(=O)c4ccccc4F)ccc3OC(C)C2=O)c(OC)c1 (configuration not stated)
-1.1%[70.6 µM],O=C1CC2CCCC(C1)N2C(=O)c1ccc2c(c1)OCO2
0.0%,COC1CCOC2(CCN(C(=O)c3cc(-c4ccccc4)n[nH]3)CC2)C1 (configuration not stated)
11.0%,CC(c1nn[nH]n1)n1ccnc1-c1cn(C2CCNCC2)nn1 (configuration not stated)
-0.5%,CNC(=O)[C@@H]1C[C@@H](Nc2ncnc(Oc3cccnc3C)c2C)CN1C
-3.7%[70.6 µM],c1cncc(Nc2cc3c(cn2)CN(Cc2ccsc2)CCN3)c1
3.8%[70.6 µM],NC(=O)CN1C(=O)CO[C@H]2CN(CC3CCCCC3)C[C@H]21
0.6%,CCNC(=O)[C@@H]1C[C@H](NC(=O)CCc2ccccc2)CN1Cc1cnc[nH]1
-18.9%,Cc1ccc(-c2cc(N3CCCN(C(=O)C(C)Oc4ccccc4)CC3)n[nH]2)cc1C (configuration not stated)
-1.4%,CCc1cccc(NC(=O)Cn2c(C)cc3nc4n(c(=O)c32)CCCCC4)c1
-4.5%,CCN1CCCC2(CCN(C(=O)Cn3ccccc3=O)C2)C1=O (configuration not stated)
3.4%,O=C(Cc1noc2ccccc12)N1CCCn2nc(CO)cc2C1
-0.3%[70.6 µM],COC[C@H]1C[C@@H](NCc2ccc(F)cc2)[C@H](O)[C@@H]1O
5.0%,Cc1sc2ccn(CC(C)C)c(=O)c2c1C(=O)NCc1cc(F)cc(F)c1
3.7%,COC1CCC12CCN(Cc1ccc(C)o1)CC2 (configuration not stated)
4.0%,CC(=O)N1C[C@@H]2CCCN3CCC[C@@H]([C@H]23)[C@H]1CCCC(=O)N1CCN(C)CC1
0.6%,COCC(=O)N1CCC2(CC1)Nc1ccccc1NC2=O
4.5%,CN1CCN(c2nc3c(c(=O)[nH]2)CCN(Cc2ccc4[nH]ccc4c2)CC3)CC1
0.1%,CC(=O)N1CC2(Cc3ccccc31)CN([S+](=O)([O-])c1cccs1)C2
1.6%,CCn1cc(CN2CCC3(CCC3NC(=O)COC)CC2)cn1 (configuration not stated)
4.0%[70.6 µM],O=C(NC1CC1)C1CN(c2cccc(Cl)c2)C(=O)N1 (configuration not stated)
6.7%,COCCn1ncc(N2CCC(NC(=O)C(C)c3ccccc3)CC2)cc1=O (configuration not stated)
2.2%,O=C1CC(c2ccccc2)N(C(=O)C2CCCC2)CCCCCCN1 (configuration not stated)
?,Cc1ccc(SCc2ccc(-c3nc(C4CCOC4)no3)o2)cc1 (configuration not stated)
-14.6%,COc1ccc(O)c(CN2CCCC(Nc3ccc(F)cc3)C2)c1 (configuration not stated)
1.9%,Cc1nn(C)c2ncnc(NCc3nn[nH]n3)c12
-11.3%[70.6 µM],Cc1ccccc1CN1Cc2nc(-c3cncnc3)ccc2OCC1=O
2.3%,Cc1ccc(OCC(=O)c2ccc3c(c2)N(CCCC(=O)NCC2CC2)C(=O)CO3)cc1C
1.8%[70.6 µM],Cc1ccc(CNC[C@H]2Cn3ccnc3CO2)cc1

(more compounds)
NPR1 antag,smiles
-10.0%,COCCn1cc(CN2CCN(Cc3cccc(F)c3)CC2)ccc1=O
-11.9%,C=CCOC(=O)C1=CN(Cc2ccccc2)S(=O)(=O)N=C1C
-0.7%,COc1ccc(NC(=O)Cn2nc3n(c2=O)CCCC3)c(OC)c1
7.6%[70.6 µM],CC(C)NC(=O)N[C@H]1CCN2C(=O)c3cc(Br)ccc3NC(=O)[C@@H]2C1
-2.0%,O=C1NC2(CCCN([S+](=O)([O-])c3cccs3)C2)Oc2ccccc21 (configuration not stated)
22.4µM*,COCCN1CCOc2nc(-c3ccc(Oc4ccccc4)cc3)ncc2C1=O
-1.0%,COCCNC(=O)CC[C@]12CC[C@](C)(O)C[C@H]1C(C)(C)C[C@@H]2NC(=O)Cc1cccs1
-17.0%,CC(C)(O)CCc1cccc(C(=O)N(Cc2ccc3c(c2)OCO3)C2CC2)c1
1.1%,O=C(NCCc1ccc(Cl)cc1)C1CCCN1c1nc2ncccc2o1 (configuration not stated)
-14.0%,COc1ccc(-c2ccnc3nc(Cc4ccc(F)cc4)nn23)c(F)c1
2.9%[70.6 µM],COc1ccc(C(=O)N2CCOCC3(CN(Cc4cc(F)cc(F)c4)C3)C2)cc1
-1.9%,CN1CCCCCCN(C(=O)Cc2c[nH]c3ccccc23)[C@H]2CCC[C@H]2C1=O
5.2%,CC(C(=O)NCc1ccc(OC(F)(F)F)cc1)C1CCOCC1 (configuration not stated)
-22.9%[70.6 µM],Cn1cc(-c2cnc3[nH]cc(CC(=O)Nc4cccc(F)c4)c3c2)cn1
-13.2%[70.6 µM],O[C@H]1CC[C@@H](Cc2cc(-c3ccc(F)cc3)on2)O[C@@H]1CNCc1ccncc1
3.4%,COc1cccc(CNC(=O)[C@@H]2C[C@@H](O)CN2C2CCN(C(=O)c3cccc(C)c3)CC2)c1
-15.1%,O=C(CCC[C@@H]1[C@H]2CCCN3CCC[C@@H](CN1C(=O)Nc1ccccc1)[C@@H]23)Nc1ccccc1
-3.0%,COc1cccc(C(=O)N2CCC(N3C[C@H](O)C[C@H]3C(=O)N3CC=C(c4ccccc4)CC3)CC2)c1
-0.1%,CN(C)c1nccnc1OC1CCN(C(=O)c2ccncc2)C1 (configuration not stated)
3.4%,CCOC(=O)C1CCN(C(=O)C2COC3(CCC(C)CC3)N2C(=O)c2cccc(C)c2)CC1 (configuration not stated)
-0.4%,Cc1ccsc1C(=O)Nc1cccc(-c2nnc3n2CCCC3)c1
-6.5%,O=C1NC(C(=O)NCc2cccc(C(F)(F)F)c2)Cn2cccc21 (configuration not stated)
-2.9%,COc1cccn(CC(=O)N2CCN(c3ccccc3C#N)CC2)c1=O
-0.3%[70.6 µM],Cc1cccc(-c2cccc(CCOc3cnc4c(ccn4CC(=O)O)c3)c2)c1
-16.1%,COc1ccc(-c2cc3c(=O)n(CCNC(=O)c4ccc(C#N)cc4)ccn3n2)cc1
-18.1%,c1cncc(-c2ccnc(NCCCN3CCCc4ccccc43)n2)c1
0.0%,Cc1ccc(NC(=O)CC2CCCN(c3cn[nH]c(=O)c3)C2)cc1C (configuration not stated)
4.2%[70.6 µM],O=C(C1CC1)N1CCC(O)(c2csc(CN3CCOCC3)n2)CC1
-1.2%,CS(=O)(=O)N1CCOc2ccc(CCC(=O)O)cc2C1
-14.4%,CC1CCN(C(=O)c2cc3c(s2)CCN(C(=O)c2ccc(Cl)cc2)C3)CC1

Another view of 3 compounds above:
compound	NPR1 antag
CCOC(=O)C1CCN(C(=O)C2COC3(CCC(C)CC3)N2C(=O)c2cccc(C)c2)CC1 (configuration not stated)	3.4%
Cc1ccsc1C(=O)Nc1cccc(-c2nnc3n2CCCC3)c1	-0.4%
O=C1NC(C(=O)NCc2cccc(C(F)(F)F)c2)Cn2cccc21 (configuration not stated)	-6.5%

Next part:
NPR1 antag,smiles
-14.2%,Cc1cnc(-c2ccccc2)n1CC1CCN(S(=O)(=O)Cc2ccccc2F)CC1
3.9%,O=C1NC2(CCN(Cc3ccccc3C(F)(F)F)C2)OCc2ccccc21 (configuration not stated)
-1.1%,COC[C@@H]1CN(C(=O)c2cccc(C#N)c2)C[C@H]1c1ccccn1
-0.4%,CCN(CC)Cc1cnc2c(C(=O)Nc3cccc(OC)c3)cnn2c1
-14.5%,O=C(C1CC1)N1CCCN(CCc2ccccc2)c2ccccc21
-1.0%,Cc1noc(-c2cn(C3CCCN(C(=O)c4ccccc4)C3)nn2)n1 (configuration not stated)
1.3%,COCCN1CC(CO)C2(CCN(C(=O)c3ccc(C(C)C)cc3)CC2)C1 (configuration not stated)
1.3%[70.6 µM],CN1C(=O)[C@@H]2C[C@@H](O)CN2C2(CN(C3CCC(F)(F)CC3)C2)C1=O
2.4%[70.6 µM],Cc1noc(C)c1-c1cnc(Nc2ccccc2)c2c1CCO2
?,COc1cc(Cl)ccc1C(=O)NC1CCN(c2cc(C(F)(F)F)nc(C)n2)CC1
-2.5%,COCCn1ncc(N2CCC(NC(=O)c3cc(C)ccc3C)CC2)cc1=O
0.1%,Cn1nnnc1C1CCCN(C(=O)c2cccc3[nH]ccc23)C1 (configuration not stated)
-9.0%,Cn1cccc1CN1CCCC(COc2ccccc2C(=O)N2CCCCC2)C1 (configuration not stated)
0.5%,CC(=O)NC1CCN(C(=O)c2coc(COc3cccc(C(F)(F)F)c3)n2)C1 (configuration not stated)
4.2%,O=C(Cc1cccc(Cl)c1)N1CCc2nc(-c3ccc(Cl)cc3)nc(-c3ccccc3)c2C1
12.6µM*,COc1ccc(CCC(=O)N2CCC[C@H]2c2nc(-c3ccccc3Cl)no2)cc1
?,COc1cc(NC(=O)Cn2c(Nc3cc(C)cc(C)c3)nc(C)cc2=O)cc(OC)c1OC
?,COc1cccc(-c2cc3c(=O)n(CCNC(=O)C4CCCCC4)ccn3n2)c1
?,CCN1c2cc(C(=O)NCc3ccc(F)c(Cl)c3)ccc2C(=O)N2CCCCCC21 (configuration not stated)
1.6%[70.6 µM],C[C@@H](NC(=O)c1cccnc1)c1onc(-c2ccc(Cl)cc2)c1C(=O)O
5.7%[70.6 µM],COc1ccc(-c2ccc3ncc(Nc4ccc(CN5CCN(C)CC5)cc4)n3n2)cn1
-6.0%,COCC1CN(C(C)=O)CC12CCN(S(=O)(=O)c1ccc(OC)cc1)CC2 (configuration not stated)
-2.4%[70.6 µM],CN1[C@@H](CCC(=O)N2CCCC2)CNC(=O)[C@@H]2[C@H]1CCN2Cc1ccccc1

Ordered by value in NPR1 antag (falling): three of the compounds above.
NPR1 antag,smiles
22.4µM*,COCCN1CCOc2nc(-c3ccc(Oc4ccccc4)cc3)ncc2C1=O
12.6µM*,COc1ccc(CCC(=O)N2CCC[C@H]2c2nc(-c3ccccc3Cl)no2)cc1
10µM*,CC(C)c1cc(C(=O)N2CCC(n3cc(-c4ccccn4)nn3)CC2)n(C)n1
